Compound activity (PubChem BioAssay)
eIF4H inh: human eIF4H binding inhibitors, primary screen, translation initiation inhibitor project, biochemical, uHTS, fluorescence polarization; inhibition, % at 35 µM; Eukaryotic translation initiation factor 4H (Homo sapiens), Q15056; hit rate 0.94% among 290,000; eIF4H fluorescence polarization binding assay; AID 2012, 2009;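 active = 50% or more with normal probe brightness, or confirmed in later tests; about a fifth of its hits are not listed in these tables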;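 also: calls also rest on retests at 20 µM and on dose response follow-up; 0% = protein and probe with vehicle and 100% = probe without protein; strong numbers were not always called active; many hits fall short of the cut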
Yeast UUG start: modulators of yeast start codon fidelity, primary screen, whole organism, S. cerevisiae, single point, plate reader. S. cerevisiae UUG-firefly luciferase reporter, luminescence/redox ratio. activity score, % at 18.7 µM. hit rate 0.13% among 350,000. AID 602363, 2012;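 active = replicate mean at a twofold rise or more, about +100% in these data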;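 also: firefly luciferase made from a UUG start codon reports start codon fidelity; reporter light over untreated wells divided by growth signal over untreated wells; some hits fall short of that in this replicate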
PABP FP inh: PABP poly(A) RNA binding inhibitors, primary screen, biochemical, fluorescence polarization, uHTS; AID 2014, 2009; hit rate 1% among 290,000; inhibition, % at 35 µM;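 active = 50% or more with normal probe brightness, or confirmed in later tests; about a fifth of its hits are not listed in these tables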;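 also: calls also rest on retests at 20 µM and on dose response follow-up; controls were probe without protein and protein plus probe with vehicle; some compounds called inactive have numbers as strong as hits; many hits fall short of the cut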
Env fusion inh: inhibitors of HIV-1 Env-driven cell-cell fusion, primary screen, HeLa-JRFL effector, CEM21 target cells, luciferase; inhibition, % at 12.3 µM; hit rate 1.1% among 360,000;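 active = mean replicate inhibition score of at least 50 and every replicate individually at or above 50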;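 also: 0% = plate neutral controls and 100% = maraviroc near 300 nM; one replicate is shown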
MT1-MMP act inh: blockers of MT1-MMP proenzyme processing, primary screen, HT1080 RFP-PRO-GFP cells, GFP/RFP fluorescence; Matrix metalloproteinase-14 (Homo sapiens), P50281; GFP/RFP ratio fluorescence, overnight; percent of plate control window, DMSO zero; GFP/RFP ratio change, % at 20 µM; hit rate 0.061% among 360,000;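 active = GFP/RFP ratio change of at least 30% with cell ATP level not reduced by more than half and red fluorescence within 50% of control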; also: strong numbers were not always called active
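system = RFP-PRO-GFP reporter HT1080 cells | dosing = 20 µM single dose, 1% DMSO | timing = overnight cell settling, then overnight compound exposure, 37 °C, 5% CO2 | read-out basis = GFP/RFP fluorescence ratio | controls = DMSO and RFP-L50D-GFP cell wells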
CSC inhib: cancer stem cell viability inhibitors, primary screen, luminescence | cancer stem cell-like cells viability | inhibition, % at 7.5 µM | hit rate 1.1% among 300,000 | AID 2717, 2010;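 active = mean at 75% or more and at least half the replicates too; tested in HMLE shEcad cells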;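 also: 0% = median of negative and 100% = median of positive control wells; the first replicate is given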
Rce1 inh: yeast Rce1p protease inhibitors, primary screen, biochemical, fluorescence, cell-free homogeneous. AID 2563, 2010. calls only. yeast membranes, quenched prenylated peptide cleavage fluorescence. hit rate 0.27% among 290,000;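 active = fall in fluorescence gain of 50% or more versus controls, with final raw signal at or below 3038400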;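 also: plate controls were neutral control wells for no effect and wells lacking membranes for full effect; tested at 10 µM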
Target sequence (Q03530 whole entry, looked up): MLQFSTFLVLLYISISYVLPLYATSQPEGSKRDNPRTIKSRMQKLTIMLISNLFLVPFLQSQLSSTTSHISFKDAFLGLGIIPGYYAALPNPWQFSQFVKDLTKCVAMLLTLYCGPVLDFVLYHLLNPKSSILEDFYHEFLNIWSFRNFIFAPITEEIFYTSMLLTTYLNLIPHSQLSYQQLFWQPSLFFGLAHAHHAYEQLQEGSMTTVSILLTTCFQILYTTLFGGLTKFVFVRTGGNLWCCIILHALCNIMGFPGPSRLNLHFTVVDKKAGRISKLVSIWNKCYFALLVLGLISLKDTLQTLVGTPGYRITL
MT1-MMP act inh RFP: second read-out of MT1-MMP act inh, no call of its own (marks repeat the call); RFP signal change, %; measured here: RFP expression control read;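 0 = vehicle wells; hits needed this value within 50% of zero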
Active calls of the source: *; i = inactive; . = no result given; + = active, no number; & = joins results of further samples; [ ] = remark or other dose. Some of the compounds tested; count on the stated rates, not on these rows.

No.	structure	eIF4H inh	Yeast UUG start	PABP FP inh	Env fusion inh	MT1-MMP act inh	MT1-MMP act inh RFP	CSC inhib	Rce1 inh
1	CC(=O)Nc1ccc(CN2CCC(N3CCC(C(=O)NC4CC4)CC3)CC2)cc1	.	-19	.	6	3	8	.	.
2	O=C(Nc1ccc2c(c1)OCO2)c1cc2nc(C3CC3)cc(C(F)(F)F)n2n1	17	-10	8	.	13	9	.	i
3	O=C(NCCC(c1ccccc1)c1ccccc1)c1cccs1	1	.	5	-11	-2	-4	.	i
4	Cc1ccc(-c2nnn(CC(=O)N(c3ccccc3F)C(CC(C)C)C(=O)NCC3CCCO3)n2)cc1 (stereo not given)	-3	-11	-4	-57	-5	-8	1	i
5	CN1CCN(C(=O)C2=C[C@H](c3ccc4c(c3)OCO4)C[C@H](OCCCCO)O2)CC1	.	-2	.	-33	0	-1	-10	i
6	O=C(O)CCCN1C(=O)C2C3c4ccccc4C(c4ccccc43)[C@@H]2C1=O (stereo not given in full)	5	-18	32	0	-4	-2	-13	i
7	Cc1cc(=O)[nH]c(Nc2ccc(C(=O)OC(C)C)cc2)n1	1	-9	2	.	1	-2	0	.
8	Cc1occc1C(=O)N/N=C/c1ccc(-c2cccc([N+](=O)[O-])c2)o1	-2	-9	3	-3	-3	-2	10	i
9	CCOC(=O)CCCNC(=O)COC(=O)c1ccc(O)cc1	-3	-11	3	16	0	0	-2	.
10	O=C(Nc1ccc(F)cc1)c1sc(Cl)nc1-c1ccccc1	2	4	-1	-16	-1	-1	-11	i
11	COc1cc(C(=O)NCC(=O)N/N=C/c2cccc(OC(=O)c3ccco3)c2)cc(OC)c1OC	4	.	-8	-6	1	3	6	i
12	O=C(NC1CCS(=O)(=O)C1)c1ccc(Br)o1 (stereo not given)	5	-18	-2	1	-1	1	.	i
13	O=C(CC1C(=O)NCCN1Cc1cccc(C(F)(F)F)c1)NCCc1cnccn1 (stereo not given)	34	-5	16	-105	-2	-2	10	i
14	COc1ccc(/C=C/C(=O)NC2CCCCCCC2)cc1S(=O)(=O)N1CCOCC1	9	10	-1	-14	4	-6	-9	i
15	CC(=O)Nc1ccc(NC(=O)c2ccccc2F)cc1	1	-10	-5	-69	-1	5	-7	i
16	C=CCn1c(SCc2ccccc2)nnc1-c1cccnc1	4	-6	-3	11	2	2	1	i
17	Cc1ccc(C)c(NS(=O)(=O)c2ccc(NC(=O)c3ccco3)cc2)c1	17	-6	15	-52	-3	-7	12	i
18	CC1CCCN(C(=O)COC(=O)C2CCN(S(=O)(=O)c3c(Cl)cccc3Cl)CC2)C1 (stereo not given)	.	-13	.	.	0	2	13	i
19	Cc1ccc(NC(=S)N(Cc2ccccc2)C(C)C)cc1	-4	-17	11	17	2	4	8	i
20	Cc1cc(/C=C2/NC(=O)N(c3ccccc3)C2=O)c(C)n1C(C)C	9	.	9	-58	-8	6	-7	i
21	COc1ccc(-c2c(NC(=O)c3ccco3)oc3ccccc3c2=O)cc1	.	-14	.	-3	-2	3	11	i
22	COc1ccc(CCNC(=O)CSCc2n[nH]c(=O)[nH]2)cc1OC	0	.	-4	1	10	5	-8	i
23	CC(C)(O)C#Cc1ncc(C(F)(F)F)cc1Cl	-2	.	6	1	1	1	10	i
24	COc1cccc(N=Nc2c(=O)[nH]n3c(=O)c4c([nH]c23)CCC4)c1	45	.	2	-24	21	9	-8	i
25	CN1CCN(C(=O)c2cn(C)c3ccc(S(=O)(=O)N(C)C4CCCCC4)cc3c2=O)CC1	3	-12	1	-17	1	5	-11	.
26	O=C(Cc1ccc(S(=O)(=O)N2CCCC2)s1)N1CCN(c2ccc(F)cc2)CC1	31	.	-4	21	-3	-10	-9	i
27	CCOc1nc(-c2ccccc2)ccc1-c1noc(-c2ccncc2)n1	0	.	4	-8	-1	-2	24	i
28	Cc1cccc(N(C(=O)c2snc(C(N)=O)c2N)C(C(=O)NC2CCCC2)c2ccc(C)o2)c1 (stereo not given)	-10	-1	6	35	-4	-6	.	i
29	CCS(=O)(=O)c1nc(S(=O)(=O)c2ccc(Cl)cc2)c(N2CCc3ccccc3C2)s1	-5	-4	-6	19	-7	-5	22	i
30	O=C(NCC(=O)N1CCOCC1)c1ccccc1	-13	.	12	3	-1	3	-3	i

In the list so far, three have an NH in an aromatic ring:
No.	structure	eIF4H inh	Yeast UUG start	PABP FP inh	Env fusion inh	MT1-MMP act inh	MT1-MMP act inh RFP	CSC inhib	Rce1 inh
7	Cc1cc(=O)[nH]c(Nc2ccc(C(=O)OC(C)C)cc2)n1	1	-9	2	.	1	-2	0	.
22	COc1ccc(CCNC(=O)CSCc2n[nH]c(=O)[nH]2)cc1OC	0	.	-4	1	10	5	-8	i
24	COc1cccc(N=Nc2c(=O)[nH]n3c(=O)c4c([nH]c23)CCC4)c1	45	.	2	-24	21	9	-8	i

Next part
No.	structure	eIF4H inh	Yeast UUG start	PABP FP inh	Env fusion inh	MT1-MMP act inh	MT1-MMP act inh RFP	CSC inhib	Rce1 inh
31	Cc1ccc(CN2C(=O)C(Cc3ccccc3)Nc3ncnc(N4CCCCC4)c32)cc1 (stereo not given)	.	-13&-9	.	39&24	6&-1	1&-3	9	i
32	CC(C)(C)C(=O)COC(=O)c1cc2ccccc2cc1O	-12	-19	-8	-72	-1	0	-15	i
33	Cc1sc2ncnc(N/N=C/c3ccc(O)cc3)c2c1C	5	-36	2	.	3	-2	36	i
34	O=C(CN(C1CCCCC1)C1CCCCC1)N1CCc2ccccc2C1	8	-5	5	13	.	.	9	+
35	O=C(c1cc(F)ccc1F)C1CCCN(C(=O)c2ccc3nccnc3c2)C1 (stereo not given)	-2	2	-4	-18	0	-2	7	i
36	COc1cc(C2C(C#N)=C(N)Oc3cc(N)ccc32)cc(OC)c1OC (stereo not given)	15	-6	8	.	14	4	.	.
37	CCN(CC(=O)NCc1ccc(Cl)cc1)C(=O)c1sccc1C	.	-2	.	.	-1	0	-22	.
38	CCN(CC)c1ccc(/C=N/NC(=O)C2CC2)cc1	-8	5	-9	.	-1	3	18	i
39	O=C1OC(Nc2ccc(Cl)cn2)c2ccccc21 (stereo not given)	-2	3	-3	.	0	0	-20	i
40	C[C@H]1CN([C@@H](C)CO)C(=O)c2cc(C#Cc3cccnc3)cnc2O[C@H]1CN(C)Cc1ccc(F)cc1	.	-3&2	.	-10&-3[16.7 µM]	-4	-5	.	.
41	O=C(COC(=O)C1=Cc2ccccc2OC1)NC1CCCC1	-7	-21	-9	.	1	0	-2	i
42	COC(=O)c1nn(-c2cccc(Cl)c2)cc(OC)c1=O	0	8	-2	7	-2	2	.	i
43	O=C(CN1C(=O)C2(OCCCO2)c2ccccc21)NCc1ccccc1	0	-11	-1	-12	1	9	0	i
44	Cc1cc(F)c(F)c(C(=O)N2CCOCC2)c1	4	-17	-9	.	1	2	.	i
45	CC(C)c1ccc(NC(=O)CSc2nc3ccsc3c(=O)n2Cc2ccc(C(=O)O)cc2)cc1	6	-2	16	2	3	-2	-19	i
46	COc1ccc(NCc2nnc(SCC(=O)c3ccc(OC)cc3)n2C)cc1	12	-19	10	-58	-3	-7	23	i
47	CN(C(=O)c1ccc(OC2CCN(S(=O)(=O)N(C)C)CC2)cc1)C1CCCCC1	-5	.	3	-5	0	-3	-9	i
48	Cc1ccc(Nc2nc(N)nc(CC#N)n2)cc1	-7	-18	4	.	-4	2	-6	i
49	O=C(NCc1ccco1)/C(=C/c1ccco1)NC(=O)c1ccccc1	4	.	-4	8	0	4	12	i
50	O=C(NC1CCC(O)CC1)c1ccc(S(=O)(=O)NCc2ccco2)cc1 (stereo not given)	-9	-14	10	.	1	2	-6	i
51	O=C1CSC(c2cccc([N+](=O)[O-])c2)N1c1ccc(O)cc1 (stereo not given)	-7	.	7	12	2	0	.	i
52	O=C(CCn1cnc(-c2ccccc2)c1-c1ccccc1)N/N=C/c1ccccc1O	9	-18	-9	-2	-4	-8	67	i
53	CCO[C@@H]1OC(C(=O)O)=C[C@H](c2ccccc2)[C@H]1CCCO	.	-19	.	-12	-5	1	-9	i
54	COc1ccc(CCC(=O)N2CCN(c3ccc([N+](=O)[O-])cc3)CC2)cc1OC	-10	-13	6	-6	0	-11	-1	i
55	Cc1nn(C)c(Cl)c1CN1CCC(Oc2ccc(C(=O)N3CCCC3)cc2)CC1	-4	-11	-8	13	1	-1	-3	.
56	CN=C1C([N+](=O)[O-])=CC=C2C1=NC1(CCCCC1)N2O	19	.	1	-60	8	7	-10	i
57	Cc1ccc(CCNC(=O)C2CCCN(S(=O)(=O)c3c(C)nn(C)c3C)C2)cc1 (stereo not given)	-1	4	2	4	-1	0	3	i
58	Cc1noc(C)c1S(=O)(=O)Nc1ccc2c(c1)CC(=O)N([C@H](C)CO)C[C@H](C)[C@@H](CN(C)CC1CC1)O2	.	-12&-9	.	-6[16.7 µM]	0	3	.	.
59	CCc1nc2c(OCC(=O)C(C)(C)C)cccn2c1N(C)C(=O)c1ccc(C)cc1	.	-12	.	0	1	-2	.	.
60	COc1ccc(OC)c(CCNC(=O)c2ccc(CS(=O)Cc3ccc(Cl)cc3)o2)c1 (stereo not given)	-2	-1	-4	8	3	3	3	i
61	COc1cc(OC)c(OC)cc1/C=N/NC(=O)c1ccc(CSc2nc(C)cc(C)n2)cc1	.	-13	.	18	-2	0	-5	.

Single values from the entries so far:
Under CSC inhib, Cc1ccc(CN2C(=O)C(Cc3ccccc3)Nc3ncnc(N4CCCCC4)c32)cc1 (stereo not given) has the entry 9
Under eIF4H inh, O=C1OC(Nc2ccc(Cl)cn2)c2ccccc21 (stereo not given) has the entry -2
Under MT1-MMP act inh, CC(=O)Nc1ccc(NC(=O)c2ccccc2F)cc1 has the entry -1

Just Rce1 inh (2 entries from above):
No.	SMILES	Rce1 inh
48	Cc1ccc(Nc2nc(N)nc(CC#N)n2)cc1	i
49	O=C(NCc1ccco1)/C(=C/c1ccco1)NC(=O)c1ccccc1	i
